CDC25B-CDK2 inh: human CDC25B-CDK2/CyclinA binding inhibition; P30305+P24941; HTRF CDC25B-CDK2/CyclinA binding, anti-His/anti-Flag; stronger effect = higher value; z-score (test concentration not listed); 94,000 tested, 0.72% active; AID 1259370;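 note: score is relative to mean and SD of negative controls; strong numbers were not always called active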
TAR Tat displ: HIV-1 TAR-Tat binding disruption. HIV-1 TAR RNA, Tat peptide displacement FRET; stronger effect = higher value. 100,000 tested, 0.6% active. z-score (no concentration beside the values);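 note: score is relative to mean and SD of negative controls; some compounds called inactive have numbers as strong as hits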
Numbers without * were called inactive; x = no result given.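 Rule for the calls: active = z-score from 3 up in half or more of its runs; inactive = the rest.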

The line under a structure holds: CDC25B-CDK2 inh | TAR Tat displ
Cc1n[nH]c(C)c1C(C)C(=O)Nc1ccc2c(c1)OCO2 (stereo not drawn)
  x | 1
COc1ccc(S(=O)(=O)c2cnc3ccc(OC)cc3c2N2CCC(C(N)=O)CC2)cc1
  -0.6 | -0.16
CCOC(=O)N/N=C/c1csnn1
  -0.25 | x
COc1ccc(Nc2nc(Nc3cccc(Cl)c3)c3cnn(C)c3n2)c(OC)c1
  x | 1.4
C=CCn1c(CCNC(=O)c2ccco2)nc2ccccc21
  -1.2 | 2
COCCCNc1ncnc2c1cnn2-c1ccc(F)cc1
  x | 1.1
Cc1noc(C)c1C(=O)N1CCc2sccc2C1c1ccc(C(F)(F)F)cc1 (stereo not drawn)
  -1.6 | x
O=C(O)CCC(=O)NCC(=O)c1ccc(OC(F)F)cc1
  -1.7 | x
O=S1(=O)CCC(S(=O)(=O)N2CCN(C(c3ccccc3)c3ccccc3)CC2)C1 (stereo not drawn)
  -0.99 | 0.62
CCOC(=O)CNC(=O)NCc1c(-n2cccc2)sc2c1CCN(CC)C2
  x | -7.3
CC(C(=O)O)n1c2ccccc2c2cnn(C)c(=O)c21 (stereo not drawn)
  -1.4 | 0.74
Cc1ccccc1C1CCCN1S(=O)(=O)c1cnc[nH]1 (stereo not drawn)
  -1.2 | 0.42
COc1ccc(Br)c(-c2nnc(Cc3ccc4c(c3)OCO4)o2)c1
  1.2 | 0.7
CC(=O)OC[C@H]1O[C@@H](n2c(Br)nc3c(N)ncnc32)[C@H](OC(C)=O)[C@@H]1OC(C)=O
  0.29 | x
CC(C)(C)NCC(O)Cn1c2ccccc2c2ccccc21 (stereo not drawn)
  -1.6 | x
CCCc1cc(=O)n2nc(N3CCC(C(=O)NCC4CCCO4)CC3)sc2n1 (stereo not drawn)
  -1.2 | 1.2
CC1C(=O)N2CCCc3cc(S(=O)(=O)N4CCOCC4)cc1c32 (stereo not drawn)
  x | 1.3
Cc1cc(C)c(-c2c(Nc3cccc(Cl)c3)c(=O)c2=O)cc1C
  x | -3.6
Cc1cc(S(=O)(=O)[C@H]2CS(=O)(=O)C[C@@H]2N2C[C@H](C)C[C@H](C)C2)ccc1F
  -1 | 0.39
C=CCn1c(NCc2cccc(OC)c2OC)nc2ccccc21
  -1.4 | 0.74
CC1CCN(c2cc(NCCCC(=O)O)c3c4c(onc24)-c2ccccc2C3=O)CC1
  1.2 | -4.3
CCc1nnc2c3ccccc3nc(NCc3ccc4c(c3)OCO4)n12
  x | -0.07
CC(=O)OCCn1c(=O)c2cc3c(=O)n(CCOC(C)=O)c(=O)c3cc2c1=O
  -0.13 | x
CC1=CC(=O)CC(C)(C)C1(O)/C=C/C(C)=C/C(=O)O (stereo not drawn)
  0.36 | x
O=C(Nc1ccc(F)cc1)c1sc(=S)n2c1[nH]c(=O)c1ccccc12
  x | -2
O=S(=O)(CCc1ccccc1)Nc1ccc2c(c1)N(S(=O)(=O)c1ccc(F)cc1)CCC2
  x | 0.7
Cc1ccc2nc(-c3ccc(C)c(N)c3)oc2c1
  -2.1 | 1.1
Cc1cc(NCCN2CCOCC2)n2nc(C(F)(F)F)c(-c3ccc(Cl)cc3)c2n1
  0.23 | 0.32
Cc1ccc(C)c(N2CCN(c3nc4ccccc4c4nncn34)CC2)c1
  x | -0.57
Fc1ccccc1-c1noc(N2CCCC2)n1
  x | 1.4
Cc1nnsc1C(=O)Nc1ccccc1SCc1cccc(C(F)(F)F)c1
  0.5 | x
CCCCC(=O)Nc1c2c(nn1-c1ccc(F)cc1)CS(=O)(=O)C2
  x | 0.52
COCCn1cc(-c2ccc3c(c2)CN2CCC(O)C2=N3)cn1 (stereo not drawn)
  x | 2.2
CC(C)C(=O)Nc1nnc(SCc2nc3ccccc3[nH]c2=O)s1
  x | -8.8
CC1=Nc2cc(C(=O)NC(C)C)ccc2Sc2ccc(C)cc21
  -2.8 | -0.41
Cc1ccc(NS(=O)(=O)c2ccc(-c3coc(C)n3)cc2)cc1
  x | 0.08
Cc1ccn2c(Nc3ccc4c(c3)OCO4)c(-c3ccc(O)cc3)nc2c1
  -1.3 | x
CC1(C)Cc2c(c(N3CCOCC3)nc3sc4c(N5CCCC5)ncnc4c23)CO1
  -0.13 | 0.92
O=C(OCn1nnc2ccccc2c1=O)c1ccc(Br)o1
  -3.8 | x
NC(=O)C1CCN([C@H]2CS(=O)(=O)C[C@@H]2S(=O)(=O)c2ccccc2)CC1
  0.29 | 1.6
c1ccc2c(c1)CC(N1CCN(c3cccc4c3OCCO4)CC1)C2
  0.02 | x
CSc1nc(NC2CCCCC2)c(C#N)c(-c2ccccc2)n1
  -2 | 0.01
O=C(c1ccc2ccccc2n1)N1CCc2ccccc2C1
  -0.46 | -0.88
Fc1ccc(-c2csc3ncnc(NC4CCN(Cc5ccccc5)CC4)c23)cc1
  x | -0.01
CCc1ccc(NC2=NS(=O)(=O)C(c3ccc(Cl)cc3)=C2C)cc1
  -0.31 | 1.4
O=c1c2nccnc2nc(SCc2ccc(F)cc2)n1Cc1ccc(F)cc1
  x | 0.63
CCOc1cc(C2C(C(=O)OC)=C(C)Nc3nnnn32)ccc1OCc1ccccc1 (stereo not drawn)
  -0.73 | -0.97
NC(=O)C1CCN(C(=O)C2c3ccccc3C(=O)N3CCc4ccccc4C23)CC1 (stereo not drawn)
  -0.71 | x
CC(=O)N1CCN(C(=O)C(=O)Nc2c3c(nn2-c2ccc(Cl)cc2)CSC3)CC1
  x | 0.81
Cn1c2ccccc2c2c(C(=O)N3CCN(c4ccc(Cl)cc4)CC3)cn(C3CCCC3)c(=O)c21
  -1.3 | x
O=C(NCc1cccs1)c1ccc(CNc2c(NC3CCCCC3)c(=O)c2=O)cc1
  1.2 | 0.24
COc1cc(Cn2c(=O)oc3ccc(C)cc32)ccc1OC(C)C
  -0.72 | 0.68
O=S1(=O)c2ccccc2NC(c2ccc(Cl)cc2)N1Cc1ccccc1 (stereo not drawn)
  -0.27 | x
Cc1cccnc1N1C(=O)C2C3c4ccccc4C(c4ccccc43)C2C1=O (stereo not drawn)
  -1.4 | 1.3
COC(=O)C1=C(C(=O)OC)SC(=C2C(=S)C(C)(C)N(C(C)=O)c3ccc(OC)cc32)S1
  -0.91 | 1.5
CCCOc1ccccc1C1C(C(=O)OCCOCC)=C(C)NC2=C1C(=O)CC(C)(C)C2 (stereo not drawn)
  -1.3 | 0.84
Cc1nnc(SCc2c(F)cccc2Cl)c2cc3occc3n12
  x | -2.9
CC1Sc2ccc(S(=O)(=O)CCC(=O)Nc3ccc(Cl)cc3)cc2NC1=O (stereo not drawn)
  x | 1.7
O=C(NCc1ccc(F)cc1)NCc1noc2ccccc12
  x | -0.27
Cn1c(-c2nnc(SCC(=O)NCC3CCCO3)o2)cc2ccccc21 (stereo not drawn)
  0.45 | 1.9

Random excerpt: five compounds from above.
The line under a structure holds: CDC25B-CDK2 inh | TAR Tat displ
CC(=O)OCCn1c(=O)c2cc3c(=O)n(CCOC(C)=O)c(=O)c3cc2c1=O
  -0.13 | x
CCCc1cc(=O)n2nc(N3CCC(C(=O)NCC4CCCO4)CC3)sc2n1 (stereo not drawn)
  -1.2 | 1.2
Cc1ccn2c(Nc3ccc4c(c3)OCO4)c(-c3ccc(O)cc3)nc2c1
  -1.3 | x
CC(=O)OC[C@H]1O[C@@H](n2c(Br)nc3c(N)ncnc32)[C@H](OC(C)=O)[C@@H]1OC(C)=O
  0.29 | x
COCCCNc1ncnc2c1cnn2-c1ccc(F)cc1
  x | 1.1

Other structures
The line under a structure holds: CDC25B-CDK2 inh | TAR Tat displ
CCOC(=O)c1noc2ncnc(N3CCc4cc(OC)c(OC)cc4C3C)c12 (stereo not drawn)
  x | 0.6
CCc1ccc(S(=O)(=O)Nc2cccc(-c3ccc(S(C)(=O)=O)nn3)c2)cc1
  x | -0.34
Cc1nc2c(cnn2-c2ccccc2)c(=O)o1
  -0.77 | x
COC(=O)c1c(N)ncn1-c1ccccc1OC
  -0.99 | x
CCCCn1cc(S(=O)(=O)c2ccc(C)cc2)c(=O)c2cc(F)c(F)cc21
  -0.11 | 1.1
O=C(Cn1cc(S(=O)(=O)Cc2ccc(F)cc2)c2ccccc21)NCC1CCCO1 (stereo not drawn)
  x | -1.1
CCOCCCNc1nc2c(S(=O)(=O)c3ccc(C)c(C)c3)nnn2c2ccsc12
  x | -0.16
COc1ccc(N2C(=O)CC(Cc3ccc(Br)cc3)C2=O)cc1 (stereo not drawn)
  2.2 | -0.5
Cc1occc1-c1nnc(SC(C)C(=O)NCCC2=CCCCC2)o1 (stereo not drawn)
  0.06 | -0.11
CCN(CC)c1cc(C)nc2nc(-c3cccc(C)c3)nn12
  -2.2 | 2.6
O=C(Nc1ccc(Cl)cc1)OCc1ccc(C#Cc2ccccc2)s1
  0.72 | x
Cc1cc(NC(=O)Nc2nc(-c3ccc(C)c(Cl)c3)c(C)s2)c(C(F)(F)F)o1
  -1.1 | x
NS(=O)(=O)c1ccc(N(S(=O)(=O)c2ccccc2)S(=O)(=O)c2ccccc2)cc1
  0.8 | x
CCOc1cc(O)c(-c2n[nH]c(C)c2Oc2ccccc2)cc1CC
  0.35 | 0.75
Clc1ccccc1-n1ncc2c1ncn1nc(-c3ccccc3)nc21
  -2.4 | 6.9*

(continued)
molecule | CDC25B-CDK2 inh | TAR Tat displ
NC(=S)Cc1cc(C(F)(F)F)cc(C(F)(F)F)c1 | -1.1 | x
c1ccc(Cc2nnc3sc(-c4csc5c4CCCC5)nn23)cc1 | -1.1 | 0.86
CCOC(=O)C1CCN(c2csc3ccc(OC)cc3c2=O)CC1 | x | 1.6
Cc1cc(C)cc(N2CC(c3nc4ccccc4[nH]3)CC2=O)c1 (stereo not drawn) | -1.3 | 0.54
Cc1ccc(S(=O)(=O)c2nnn3c2nc(NCc2ccco2)c2sccc23)cc1 | x | -1.4
O=C(Nc1c(F)cc(F)cc1Br)c1csc2c1CCCC2 | -1.1 | 0.27
Cc1ccc(NC(=O)C2C3C=CC4(O3)C2C(=O)N(C2CC2)C4C(=O)NC2CCCCC2)cc1Cl (stereo not drawn) | -0.01 | -0.9
O=c1c2c3c(sc2nc(SCCO)n1-c1ccccc1)CCCC3 | 0.59 | x

Whole records, quoted from the list. Values in the order: CDC25B-CDK2 inh, TAR Tat displ
c1ccc(Cc2nnc3sc(-c4csc5c4CCCC5)nn23)cc1 reads -1.1, 0.86
Cc1cc(C)cc(N2CC(c3nc4ccccc4[nH]3)CC2=O)c1 (stereo not drawn) reads -1.3, 0.54
CCOC(=O)C1CCN(c2csc3ccc(OC)cc3c2=O)CC1 reads x, 1.6
Cc1ccc(NC(=O)C2C3C=CC4(O3)C2C(=O)N(C2CC2)C4C(=O)NC2CCCCC2)cc1Cl (stereo not drawn) reads -0.01, -0.9
Cc1ccc(S(=O)(=O)c2nnn3c2nc(NCc2ccco2)c2sccc23)cc1 reads x, -1.4

(further entries)
molecule | CDC25B-CDK2 inh | TAR Tat displ
CCc1nnc2c(NCc3ccco3)nc3ccccc3n12 | x | 0.8
Cc1nc(N)sc1-c1csc(Nc2cccc(Cl)c2C)n1 | 9.4* | -3.7
CCCN(C(=O)NCc1noc2ccccc12)c1cccc(Cl)c1 | x | 0.08
CC1CCN(C(=O)CN2C=NS(=O)(=O)c3ccccc32)CC1 | x | 1.4
CCOC(=O)Oc1ccc2c(c1)C(C)=CC(C)(C)N2 | -0.55 | 0.24
Cc1oc2ccccc2c1CNC(=O)Nc1ccc(Cl)cc1Cl | -2.2 | x
CCCCc1ccc(NC(=O)NCCNc2nccc(C(F)(F)F)n2)c(C)c1 | -2.8 | x
Cc1c(C(=O)N2CCC(C)CC2)c(S(=O)(=O)NCc2cccs2)c(C)n1C | x | 1.9
Cc1ccnc(NC(c2ccc(C)s2)c2ccc3cccnc3c2O)c1 (stereo not drawn) | -1 | -0.87
CC1(C)CC(=O)C2=C(C1)OC(N)=C(C#N)C2c1cccs1 (stereo not drawn) | -2.2 | x
O=C(O)C1=CC(c2cc(F)cc(F)c2)n2nnnc2N1 (stereo not drawn) | x | 1.6
COc1cc(C[C@@H](CO)[C@H](CO)Cc2ccc(O)c(OC)c2)ccc1O | x | -0.28
Cc1cc(N2CCN(C)CC2)nc2ccc(NC(=O)NCc3ccco3)cc12 | x | 0.9
CC1CCN(c2nnc(NC(=O)c3csc4c3CCCC4)s2)CC1 | -1.4 | 0.67
O=C(CCCc1ccccc1)N(c1ccc(Br)cc1)C1C=CS(=O)(=O)C1 (stereo not drawn) | -0.86 | -0.2
C/C=C(/C)C(=O)O[C@H]1C[C@@]2(C)O[C@H]2[C@@H](OC(C)=O)C2(C)CC[C@@](O)(C(C)C)[C@H]12 (stereo partly drawn) | x | 1.1
COc1cc(OC)cc(C(=O)n2c(=O)oc3ccc(Cl)cc32)c1 | x | -0.51
COC(=O)c1sccc1S(=O)(=O)N1CCN(c2ccc(Cl)cc2)CC1 | x | 0.66
CC(C)OCCCNc1nc2c(S(=O)(=O)c3ccccc3)nnn2c2ccsc12 | x | -0.04
O=c1[nH]c2ccccc2c2nc(-c3ccc(F)cc3)nn12 | 0.32 | 2.3
CSc1ccc(CCNC(=O)Cn2ncn3c(cc4cc(F)ccc43)c2=O)cc1 | 2.8 | 0.39
O=C(c1cccnc1)N1N=C(c2cccs2)CC1c1ccc(F)cc1 (stereo not drawn) | -1.7 | -0.03
CCC(=O)Nc1sc2c(c1C(=O)Nc1ccccc1Cl)CCC2 | -0.12 | -0.14
CCOCCCNC(=O)Cn1cnc2nc3c(cc2c1=O)CCCC3 | x | 0.24
CN(C(=O)c1noc2c1CSc1ccccc1-2)c1ccccc1F | -1.2 | -0.79
CCN(CC)S(=O)(=O)c1ccc2c(c1)N(CC(=O)NCCC(C)C)C(=O)CO2 | -0.29 | x
CCn1c(=O)c2cc(C(=O)N(Cc3ccco3)CC3CCCO3)sc2c2ccccc21 (stereo not drawn) | -2 | -0.6
NC(=O)CSc1ccc2nnc(-c3ccccc3)n2n1 | -0.48 | x
O=S(=O)(CCSc1ccc(C(F)(F)F)cn1)c1ccc(OC(F)(F)F)cc1 | -1.3 | x
COc1ccc(OC)c(CCNc2nc(-c3ccccc3)no2)c1 | x | 0.97
O=C(CN1C(=O)N(c2ccccc2)S(=O)(=O)c2ccccc21)c1ccc(F)cc1 | x | 0.62

No enrichment for hits. Share with any hit: about 0.97%.
